# Assay outcomes (PubChem)
# VACV Venus inh – inhibitors of vaccinia virus (Venus reporter). Vaccinia virus Venus reporter expression, fluorescence. Potency, µM (highest dose often 36.5 µM), inactives show at the highest dose activity change, negative = inhibition, usual class: inhibitors. actives 0.46% (n = 330,000). AID 720580; active means well fitted inhibition curve with a large enough effect; inconclusive means small, poorly fitted or top-dose-only effect; inactive means no such curve, though single readings can be large or run the other way; tested in A549 cells; further: nearly all actives have a fitted effect of over 30% in size; inactives centre near -10
# Vaccinia mCherry – vaccinia inhibition (mCherry reporter); Potency, µM (series often up to 36.5 µM), inactives show top-dose activity change, negative = inhibition, usual class: inhibitors; AID 720579; actives 0.63% (n = 310,000); Vaccinia virus mCherry reporter infection, fluorescence; about a quarter of the inactives have no number; active = well fitted inhibition curve with a large enough effect; inconclusive = small, poorly fitted or top-dose-only effect; inactive = no such curve, though single readings can be large or run the other way; tested in A549 cells; further: nearly all actives have a fitted effect of over 35% in size; inactives centre near -10
# An asterisk follows results filed as active; i = inactive; ? = inconclusive; nt = no result given; & = joins results of further samples; [ ] = remark or other dose. On the % scale 0 is the no-effect control and ±100 the full control effect; potency means the concentration at half of the fitted maximal effect.
SMILES,VACV Venus inh,Vaccinia mCherry
CCOC(=O)c1cccc(NC(=O)C(C)n2nc(C)c3c(C)n(-c4ccccc4)nc3c2=O)c1 (stereo not drawn),-12.2%,-23.6%
COc1ccc(CNC(=O)[C@@H]2CC=C[C@@H]3CCN(Cc4ccccc4)C(=O)[C@@H]32)cc1,-18.0%&-17.3%,-0.8%&-16.6%
CCCn1cnnc1CNC(=O)C1CCC(=O)N(CCc2cccc(F)c2)C1 (stereo not drawn),-18.6%,-17.1%
COC1=CCC2([N+](=O)[O-])CN(CC(=O)O)CC1([N+](=O)[O-])C2 (stereo not drawn),-10.2%,i
CCc1ccc(NC(=O)CSc2nc3c(c(=O)[nH]2)CN(Cc2ccc4c(c2)OCO4)CC3)cc1,2.7%,-10.8%
Cc1c2c(nc3ccccc13)CCC(C)C2 (stereo not drawn),-28.5%,?
CC(C)Cc1cc(C(=O)Nc2cc(Br)ccc2O)no1,-19.6%,?
O=C(CN1CCCCC1)c1cccc(Br)c1,-1.8%,-2.5%
COc1cccc(CNc2nc3ccccc3c3nc(-c4cccc(C)c4)nn23)c1,-13.9%,i
O=S(=O)(Nc1cccc(-c2ccc(N3CCCC3)nn2)c1)c1cc(F)ccc1F,-11.7%,-14.1%
Cc1ccc2c(c1)COc1c3ccc(C(=O)N[C@@H](C)CO)cc3nn1-2,-28.4%,-29.3%
COc1ccc(N/C=C/C(=O)c2ccc3c(c2)OCO3)cc1OC,0.6%,i
CCC1CCCCN1C(=S)NC(=O)c1cccs1 (stereo not drawn),-2.6%,i
COCCNc1nc2c(c(=O)n(Cc3cccc(Cl)c3)c(=O)n2C)n1C,18.1%,5.6%
Cc1ccc(CNC(=O)Nc2ccc(F)cc2)n1C,-10.2%,-8.4%
N#CC(c1ccc(Cl)nn1)c1ccc(Cl)cc1Cl (stereo not drawn),-14.2%,nt
CCOc1ccccc1NC(=O)NCc1cccnc1,-5.1%,i
Cc1cc(OC(C)C(=O)N2CCN(c3ccc(F)cc3)CC2)c2c(C)c(C)c(=O)oc2c1 (stereo not drawn),-6.3%,-13.2%
CCn1c(=S)[nH]c2c(=O)n(C)c(=O)n(C)c21,-13.5%,-2.8%
CCOc1ccccc1NC(=O)C(OC(=O)c1cnccn1)c1ccccc1 (stereo not drawn),-17.0%,-2.8%

# Not a retest: an excerpt of the list.
SMILES,VACV Venus inh,Vaccinia mCherry
CCn1c(=S)[nH]c2c(=O)n(C)c(=O)n(C)c21,-13.5%,-2.8%
CCOc1ccccc1NC(=O)C(OC(=O)c1cnccn1)c1ccccc1 (stereo not drawn),-17.0%,-2.8%

# (more compounds)
SMILES,VACV Venus inh,Vaccinia mCherry
COc1cccc(CN2CCNC(=O)C2CC(=O)NCCN2CCOCC2)c1OC (stereo not drawn),-4.4%,-2.1%
CCc1ccccc1N1C(=O)NC(=O)/C(=C\c2cc(C)n(C)c2C)C1=O,-25.7%,10µM*
CC(=O)c1c(C)[nH]c(C(=O)N2CCc3ccccc3C2)c1C,-6.6%,-14.9%
O=C1CC(C(=O)N2CCC3(CC2)OCCO3)CN1CCc1ccccc1 (stereo not drawn),3.4%,nt
Cc1c(Cl)c(C(=O)N2CCCc3ccccc32)nn1C,-10.3%,-13.5%
OC(c1ccccc1)c1ncc(-c2ccccc2Cl)[nH]1 (stereo not drawn),-6.1%,i
COc1ccc(N(CC(=O)NCc2ccc3c(c2)OCO3)C(=O)c2csnn2)cc1,-11.9%,-8.7%
Cc1ccc2ncc3c(-c4ccccc4)nn(CC(=O)NC4CCCCC4)c3c2c1,-1.6%,-7.9%
COc1cc(/C=N/NC(=O)C(=O)NCC2CCCO2)ccc1OCC(=O)N1CCOCC1 (stereo not drawn),0.8%,-1.3%
CN(CC(=O)Nc1ccc(N2CCOCC2)cc1)C(=O)CCc1cc(C(C)(C)C)c(O)c(C(C)(C)C)c1,-16.5%,-9.1%
COc1ccc(C2=C(C)C(=O)N(Cc3ccc(C(=O)NC(C)c4ccccc4)cc3)S2(=O)=O)cc1 (stereo not drawn),-3.2%,-2.5%
CCOC(=O)c1oc2ccccc2c1COC(=O)CNC(=O)c1cccc(C)c1,-8.9%,-16.5%
O=C(NCc1ccccc1)C(Cc1ccccc1)NS(=O)(=O)c1cccc2nsnc12 (stereo not drawn),-8.9%,-10.2%
COc1ccc(C2CC(c3ccc([N+](=O)[O-])cc3)=NN2C(C)=O)cc1 (stereo not drawn),-19.7%,-17.3%
COc1cc(/C=N/NS(=O)(=O)c2ccccc2)ccc1OS(=O)(=O)c1ccc(C)cc1,0.6%,-12.0%
COc1ccc(C(=O)Nc2ccc(C)c(S(=O)(=O)N3CCOCC3)c2)cc1S(=O)(=O)N1CCCC1,-6.7%,-6.7%
CCOc1cc(N2CCOCC2)c(OCC)cc1NC(=O)CSc1nnc(N)s1,10.2%,-13.4%
CC(=O)NC1(NC(C)=O)CCN(C)C(c2ccccc2)C1C (stereo not drawn),-36.2%,nt
Cc1cc(C)cc(-n2cnc3cc(C(=O)NC4CCCCCC4)ccc32)c1,-14.7%,i
Cc1nc2c3ccccc3nc(NNC(=O)CCC(=O)N3CCN(c4cccc(Cl)c4)CC3)n2n1,-3.6%,-10.3%
CCOc1cccc(OCCCn2c(-c3ccc(Br)cc3)nc3ccccc3c2=O)c1,-3.2%,-1.1%
CN1CCN(c2nc3c(c(=O)n(C)c(=O)n3C)n2CCSc2nc3ccccc3s2)CC1,8.1%,0.8%
O=C(CN(Cc1cccs1)S(=O)(=O)c1ccc(S(=O)(=O)NC2CCCCC2)cc1)Nc1ccccc1,?,?
CCn1c(Oc2ccc(F)cc2)nc2c1c(=O)n(C)c(=O)n2C,-14.5%,-4.4%
O=C(NC(NC(=O)c1ccccc1)c1ccccc1)c1ccccc1,-4.9%,-10.7%
O=C(Nc1ccccc1F)c1coc(=O)c(Br)c1,2.5%,6.3%
CCC(=O)CC(c1ccccc1)c1c(O)c2ccccc2sc1=O (stereo not drawn),-3.2%,-15.8%
CCc1cccc(NC(=O)Cn2nc3c4cc(F)ccc4n(Cc4cccc(C)c4)cc-3c2=O)c1,-1.0%,5.4%
COc1ccc(C(=O)CSc2nnc(CNC(=O)c3ccc(OC)cc3)n2C)cc1,0.9%,i
COc1ccc(N2CC(C(=O)Nc3nnc(SCC(=O)NC4CCCC4)s3)CC2=O)cc1 (stereo not drawn),4.0%,2.3%
Cc1nc2c(cc1C#N)C(=O)c1ccccc1-2,9.1%,-11.3%
COc1ccc(Nc2ncnc3sccc23)cc1OC,-11.8%,?
COc1cc(/C=N/NC(=O)C(=O)Nc2ccccn2)ccc1O,-1.4%,-12.6%
CCC(=O)Nc1nnc2n1CCS2,6.5%,-2.6%
Cc1ccc(Cl)cc1N1CCN(C(=O)c2cnn(-c3ccc(Cl)cc3)c2C2CCNCC2)CC1,-19.6%,-25.1%
O=C(Nc1nc2ccccc2s1)c1ccc(S(=O)(=O)N2CCCC2)cc1,-8.8%,-18.0%
COc1ccc(NC(=O)N(C)C[C@H]2Oc3c(NS(=O)(=O)c4cn(C)cn4)cccc3C(=O)N([C@H](C)CO)C[C@@H]2C)cc1,-6.6%,-19.0%
O=C(NC1CC1)C1=C[C@@H](c2coc3ccccc3c2=O)C[C@@H](OCCCCO)O1,?,?
O=C(NCc1ccc(F)cc1)c1cccc(N2CCCS2(=O)=O)c1,-5.8%,-12.5%
O=C(O)Cc1sc(Nc2ccc(Cl)cc2)nc1-c1cccs1,10.3%,-7.8%
COc1ccccc1CNC(=O)COC(=O)Cc1ccsc1,5.2%,-0.6%
Cc1ccc2c(c1)N(CC(=O)NCCc1ccccc1)C(=O)CO2,-9.9%,7.6%
Cc1ccc(C)c(N2CCN(C(=O)Nc3ccc4c(c3)N(C)C(=O)CS4)CC2)c1,?,-20.2%
O=C1OC(c2ccccc2)=N/C1=C\C=C\c1ccccc1[N+](=O)[O-],-5.5%,i
COc1ccc(/C=N/N2CCN(C)CC2)cc1O,-13.1%,nt
Cc1cc(C2=NNC(=NC3CC3)SC2)c(C)n1-c1ccccc1,-19.3%,-4.7%
Cc1[nH]c2ccccc2c1SCCNC(=O)c1ccc(S(=O)(=O)N2CCCC2)cc1,-28.8%,-10.4%
O=C(c1cnc(N2CCCCC2)c2ccccc12)N1CCN(c2cccc(Cl)c2)CC1,-28.3%,-20.1%
CCCC(=O)Nc1ccc(C(=O)Nc2ccc([N+](=O)[O-])cc2OC)cc1,-22.2%,i
O=[N+]([O-])c1ccc(Cl)c(S(=O)(=O)Nc2cccc(-c3ccc(N4CCCC4)nn3)c2)c1,?,-29.4%
# (listing goes on)
SMILES,VACV Venus inh,Vaccinia mCherry
Cc1ccc(-n2ccnc(NCCc3ccc(S(N)(=O)=O)cc3)c2=O)c(C)c1,-9.6%,-20.2%
NS(=O)(=O)c1ccc(N=NN2CCCCC2)cc1,-9.2%,-1.8%
Cc1ccc(C(=O)NCCN2C3=NC[C@H](C(C)C)N3C[C@H]2Cc2ccc(O)cc2)cc1Br,-24.9%,-9.8%
CC/C(=C\C(=O)c1ccncc1)Nc1ccc(Br)cc1,?,nt
Cc1ccc(CSc2ccc3nnc(CCNS(=O)(=O)c4ccc(C)cc4)n3n2)cc1,-9.2%,-5.2%
CCN1CCN(S(=O)(=O)c2cc(OC)c(Cl)cc2OC)CC1,-11.3%,-15.8%
COc1ccc2c(Cl)c(C(=O)N/N=C/c3c(C)[nH]c4ccccc34)sc2c1,-26.8%,?
COc1ccc(-c2n[nH]c(=S)n2/N=C/C=C/c2ccccc2OC)cc1,-14.6%,-0.4%
COc1ccc(C(CC(=O)Nc2ccccc2OC)n2cccc2)cc1 (stereo not drawn),-15.6%,?
Cc1ccc(S(=O)(=O)Nc2cc(-c3ccccc3)nn2C)cc1Cl,-16.6%,i
CC1CCCN(CCOCCSc2ccccc2)C1 (stereo not drawn),-17.3%,-23.1%
CC1CCN(CC2CCN(C(=O)NCc3ccc(F)cc3)CC2)CC1,-2.4%,-2.2%
CCCCCn1c(Sc2ccccc2)nc2c1c(=O)[nH]c(=O)n2C,-13.6%,i
Cc1ccc(-n2c(=S)[nH]c3c(oc4ccccc43)c2=O)cc1,-3.1%,-11.3%
COc1ccc(C(=O)Nc2ccccc2)cc1S(=O)(=O)Nc1ccc(Br)cc1,-1.0%,7.3%
CCCCc1nn2c(=O)cc(COC(=O)CNC(=O)COc3ccc(C)cc3)nc2s1,-12.1%,-6.0%
Cc1ccc(NC(=O)C2CC(=O)Nc3ncnn32)c(C)c1 (stereo not drawn),-13.6%[7.34 µM],-3.9%[7.34 µM]
C/C(=N\NC(=O)C(N)=O)c1ccc(Br)cc1,-14.9%,-4.4%
COc1ccc(C(=O)c2coc3ccc(O)c(CN4CCCC4)c23)cc1,-3.0%,?
CCOC(=O)c1cc2c(=O)c3cc(C)ccc3oc2nc1C,-11.2%,i

# Of the compounds above, these contain an aryl thioether with sulfur outside any ring.
SMILES,VACV Venus inh,Vaccinia mCherry
CCc1ccc(NC(=O)CSc2nc3c(c(=O)[nH]2)CN(Cc2ccc4c(c2)OCO4)CC3)cc1,2.7%,-10.8%
CCOc1cc(N2CCOCC2)c(OCC)cc1NC(=O)CSc1nnc(N)s1,10.2%,-13.4%
CN1CCN(c2nc3c(c(=O)n(C)c(=O)n3C)n2CCSc2nc3ccccc3s2)CC1,8.1%,0.8%
COc1ccc(C(=O)CSc2nnc(CNC(=O)c3ccc(OC)cc3)n2C)cc1,0.9%,i
COc1ccc(N2CC(C(=O)Nc3nnc(SCC(=O)NC4CCCC4)s3)CC2=O)cc1 (stereo not drawn),4.0%,2.3%
Cc1[nH]c2ccccc2c1SCCNC(=O)c1ccc(S(=O)(=O)N2CCCC2)cc1,-28.8%,-10.4%
Cc1ccc(CSc2ccc3nnc(CCNS(=O)(=O)c4ccc(C)cc4)n3n2)cc1,-9.2%,-5.2%
CC1CCCN(CCOCCSc2ccccc2)C1 (stereo not drawn),-17.3%,-23.1%
CCCCCn1c(Sc2ccccc2)nc2c1c(=O)[nH]c(=O)n2C,-13.6%,i

# Continued:
SMILES,VACV Venus inh,Vaccinia mCherry
CCOc1cc2sc(N3CCC(C(=O)Nc4ccc(C)cc4C)CC3)nc2cc1Br,-18.7%,-17.7%
CC(=O)Nc1ccc(OCC(=O)NCCc2ccc(Cl)cc2)cc1,-8.6%,-1.8%
Cc1ccc(-n2cccn2)c(CN2CCCC(C(=O)c3ccc4c(c3)OCO4)C2)c1 (stereo not drawn),-17.1%,i
Cc1nc(N2CCC(C)CC2)c2c(C)c(C(=O)Nc3ccc(C(F)(F)F)cc3)sc2n1,-8.5%,i
N#CC1=C(SCC(=O)Nc2ccccc2)NC(=O)CC1c1ccc(O)cc1 (stereo not drawn),-11.6%,21.8%
CCCCc1nnc(NC(=O)C2CC(=O)N(c3ccc4c(c3)OCCO4)C2)s1 (stereo not drawn),1.3%,-1.8%
COc1ccc(NC(=O)CNC(=O)Cn2c(C)cc3ccccc3c2=O)c(OC)c1,-5.6%&-13.5%,-0.3%&-12.5%
O=C(NCc1cccnc1)c1ccc(COc2ccc3c(c2)CCC3)o1,-25.4%,i
CCOC(=O)c1c(C)[nH]c(C(=O)CSc2nc3ccccc3o2)c1C,-10.0%,-13.5%
CC1(C)Cc2c(sc3c2C2=NCCN2C=N3)CS1,-11.6%,nt
Cc1ccc(S(=O)(=O)NC(Cc2ccccc2)C(=O)NN)cc1 (stereo not drawn),-10.6%,-13.0%
CCOC(=O)C1=C(CS(=O)(=O)c2ccc(C)c(C)c2)NC(=O)NC1c1ccc(O)cc1 (stereo not drawn),-9.6%,-8.0%
CCN(CC)c1ccc(NC(=O)CSc2nnc3nc(C)cc(C)n23)cc1,-24.5%,-19.6%
Cc1cc(C)c(NC(=O)CSc2nnc3[nH]c(=O)cc(C)n23)c(C)c1,-12.6%,-0.3%
CC(C)C(=O)NNc1ccccc1,0.0%,i
